Screening data: PubChem, National Center for Advancing Translational Sciences (NCATS)
Cruzain Triton: blocks cruzain activity in presence of Triton detergent; 0.43% of 200,000 active; AID 1478; purified cruzain, Z-FR-AMC fluorescence, 0.01% Triton; Potency, µM, without a hit: max response, negative = inhibition, hits mostly inhibitors; P25779;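 further: plate controls were neutral wells for no effect and buffer without enzyme for full effect; nearly all actives have a fitted effect of over 40% in size; top concentration of the series not given in the record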
Target sequence (P25779 123-467 limits assumed): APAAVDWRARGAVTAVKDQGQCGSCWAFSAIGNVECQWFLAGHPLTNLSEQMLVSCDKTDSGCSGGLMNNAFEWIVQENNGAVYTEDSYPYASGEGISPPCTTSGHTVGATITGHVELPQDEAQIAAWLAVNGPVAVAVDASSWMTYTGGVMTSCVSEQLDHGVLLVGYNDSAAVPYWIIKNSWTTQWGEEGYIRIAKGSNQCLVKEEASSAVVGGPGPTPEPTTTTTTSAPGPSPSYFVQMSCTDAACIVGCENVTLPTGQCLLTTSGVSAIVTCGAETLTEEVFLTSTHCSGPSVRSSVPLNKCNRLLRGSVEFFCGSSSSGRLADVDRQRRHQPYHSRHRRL
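Sodium acetate buffer (100 mM, pH 5.5) containing 5 mM DTT and 0.01% Triton X-100 hosted 1.5 nM cruzain and test compound for 15 min at room temperature. Cleavage of 2 uM Z-FR-AMC was then tracked by fluorescence.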
StopGo reporter: FMDV 2A StopGo reporter, luciferase signal. human cells with a luciferase reporter of 2A StopGo recoding; control for the full effect not named in the record. Potency, µM (series often up to 57.9 µM), for the others: at the top dose signal change, negative = less light. 1.2% of 410,000 active. AID 1159524; active = well fitted falling curve with a large enough effect; inconclusive = small, poorly fitted or top-dose-only effect; inactive = no such curve, though single readings can be large or run the other way; tested in HEK293T cells; further: on the % scale 0 is the no-effect control and ±100 the full control effect; nearly all actives have a fitted effect of over 45% in size; luciferase light after 4 h
NS1 inh: influenza NS1 inhibition | S. cerevisiae slowed by influenza A NS1, growth recovery by OD600 | Potency, µM (doses to about 46.1 µM), for the others: at the highest dose activity, positive = more growth | 0.4% of 270,000 active | AID 2326; active means well fitted rising curve with a large enough effect; inconclusive means small, poorly fitted or top-dose-only effect; inactive means no such curve, though single readings can be large or run the other way; further: nearly all actives have a fitted effect of over 50% in size
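Read-out: OD600 growth recovery of NS1-expressing budding yeast. Cells grown overnight at 30C in -URA glucose medium, washed, resuspended and diluted 1:100 in 2% galactose assay medium, pH 6.0. Same strain lacking NS1 served as positive control.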
RE007 growth inh: less growth of the S. pombe RE007 Vpr strain. AID 651644. Potency, µM (titrated, usually from 92.2 µM), inactives show at the highest dose activity change, negative = less growth. S. pombe RE007 Vpr strain, BacTiter-Glo ATP luminescence, 24 h; control for the full effect not named in the record. 0.21% of 360,000 active; active = well fitted falling curve with a large enough effect; inconclusive = small, poorly fitted or top-dose-only effect; inactive = no such curve, though single readings can be large or run the other way;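 further: on the % scale 0 is the no-effect control and ±100 the full control effect; nearly all actives have a fitted effect of over 50% in size; the assay follows cell death caused by Vpr and the record does not say whether a fall means rescue or toxicity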
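Fission yeast strain RE007, carrying one chromosomally integrated HIV-1 vpr copy, was seeded at OD 0.01 in PMG+AL medium with 23 nL pinned compound. After 24 h at 30 °C and 99% humidity, viability was read by BacTiter-Glo luminescence.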
Marburg entry inh: blocks Marburg virus binding to or entry into cells | Marburg virus pseudotyped entry inhibition, cell reporter; control for the full effect not named in the record; about a third of the inactives were read at about 46 µM | Potency, µM (titrated, usually from 37.8 µM), inactives show top-dose activity change, negative = inhibition, actives largely listed as inhibitors | 1.8% of 300,000 active; active = well fitted inhibition curve with a large enough effect; inconclusive = small, poorly fitted or top-dose-only effect, or effect the other way; inactive = flat fitted curve, though single readings scatter; tested in HEK293 cells; about a fifth of its hits are not listed in these tables; further: on the % scale 0 is the no-effect control and ±100 the full control effect; luciferase read-out
LASV entry inh: blocks Lassa virus binding to or entry into cells | Lassa virus pseudotype entry inhibition, cell reporter; control for the full effect not named in the record | Potency, µM (top dose mostly 37.9 µM), for the others: top-dose activity change, negative = inhibition, hits mostly inhibitors | 1.2% of 300,000 active; active means well fitted inhibition curve with a large enough effect; inconclusive means small, poorly fitted or top-dose-only effect, or effect the other way; inactive means flat fitted curve, though single readings scatter; tested in HEK293 cells; further: on the % scale 0 is the no-effect control and ±100 the full control effect; nearly all actives have a fitted effect of over 50% in size; luciferase read-out
Cruzain inh noDet: inhibitors of Trypanosoma cruzi cruzain without detergent; P25779; purified cruzain, Z-FR-AMC fluorescence, no detergent; Potency, µM, for the others: max response, negative = inhibition, hits mostly inhibitors; 2.3% of 200,000 active;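 further: plate controls were enzyme without inhibitor for no effect and buffer without enzyme for full effect; nearly all actives have a fitted effect of over 40% in size; top concentration of the series not given in the record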
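Purified cruzain at 1.5 nM, pre-incubated 15 min with compound at room temperature in 100 mM sodium acetate pH 5.5, 5 mM DTT, 0.00005% Triton X-100. Reaction started with 2 uM Z-FR-AMC; AMC fluorescence increase over 60 s gives rate.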
SARS PLP yeast: inhibitors of SARS-CoV papain-like protease in yeast; 0.19% of 330,000 active; Potency, µM (series often up to 32.9 µM), inactives show at the highest dose activity, positive = growth rescue; S. cerevisiae expressing SARS-CoV PLpro, growth rescue; control for the full effect not named in the record; active means well fitted rising curve with a large enough effect; inconclusive means small, poorly fitted or top-dose-only effect; inactive means no such curve, though single readings can be large or run the other way; further: 0% is about no effect; nearly all actives have a fitted effect of over 55% in size; growth read by luminescence after 48 h
* marks the source's active call; other numbers are inactive results; ? = inconclusive; . = no result given; & = joins results of further samples; [ ] = dose if it differs, or a comment. Unless noted, the call rests on the fitted dose curve; in most records, active means well fitted curve in the direction sought with a large enough effect; inconclusive means small, poorly fitted or top-dose-only effect, or another doubt; inactive means no such curve, though single readings can be large; an effect the other way counts as inactive or inconclusive. Potency means the concentration at half of the fitted maximal effect. The order is random (roughly 4.5% active in at least one column).

SMILES	Cruzain Triton	StopGo reporter	NS1 inh	RE007 growth inh	Marburg entry inh	LASV entry inh	Cruzain inh noDet	SARS PLP yeast
O=C(c1cccc(S(=O)(=O)N2CCOCC2)c1)N1CCCc2ccccc21	0.8%	-13%	-1%	18%	-3%	-9%	-4%	3%
CCN(CCCNC(=O)c1nn(-c2ccc(OC)c(Cl)c2)c(=O)c2c1c1ccccc1n2C)c1cccc(C)c1	-2.1%	-6%	.	.	-2%[46.1 µM]	?	-19%	.
S=c1[nH]nc([C@@H]2C[C@H]2c2ccccc2)n1-c1ccccc1Cl	.	-12%	-1%	29%	.	.	.	1%
COc1ccccc1C(c1nnnn1C(C)(C)C)N1CCCc2ccccc21 (centres undefined)	-9.1%	?	7%	4%	1%	5%	10%	1%
CCCCC(NC(=O)c1ccccc1)C(=O)OCC(=O)N1c2ccccc2Sc2ccccc21 (centres undefined)	-11%	-22%	?	-4%	-23%	4%	?	-11%
Cc1ccc(NC(=S)NC2CC3CCC(C2)N3Cc2ccco2)c(C)c1 (centres undefined)	4.4%	.	5%	0%	-17%	-5%	-1%	-4%
Nc1nc(=S)ss1	.	-21%	.	55%	-15%[46.1 µM]	4%[46.1 µM]	.	.
COc1ccc(C)cc1NC(=S)NN1CCN(C)CC1	.	-10%	1%	1%	4%[46.1 µM]	2%	.	0%
COc1ccc(NC(=O)Cn2cc(S(=O)(=O)c3ccccc3)c(=O)c3cc4c(cc32)OCO4)cc1	-5.0%	-2%	.	.	-24%[46.1 µM]	1%[46.1 µM]	23%	.
Cc1n[nH]c(C)c1S(=O)(=O)N1CCOCC1	3.9%	-12%	-2%	-22%	-18%	17%	7%	14%
Cc1cccc(C(=O)NCC(=O)OCc2cc(=O)n3ccsc3n2)c1	.	-12%	.	8%	25%	3%	.	-6%
CN(C)c1ccc(/C=N/NC(=O)C2COc3ccccc3O2)o1 (centres undefined)	-1.3%	16%	8%	2%	?	6%	?	5%
N#CCCN(C(=O)COC(=O)c1ccc(CNS(=O)(=O)c2ccc(F)c(Cl)c2)cc1)c1ccc(F)cc1	-5.1%	?	?	-6%	?	?	10%	4%
O=C(N/N=C/c1c(Cl)nc2ccccn2c1=O)c1cccnc1	.	-6%	2%	16%	.	.	.	0%
Cc1cccc(-n2nc3c(c2NC(=O)c2ccco2)CS(=O)C3)c1C (centres undefined)	.	10%	.	-22%	0%[46.1 µM]	-1%	.	15%
C/C(NCc1ccccc1)=C(\C#N)C(=O)NCc1ccccc1	-3.2%	-5%	-3%	-7%	-19%	-9%	-6%	-1%
Cc1c(NC(=O)c2nn(CC(C)C)c(=O)c3ccccc23)c(=O)n(-c2ccccc2)n1C	.	-19%	.	12%	8%	?	.	1%
O=C(c1ccc2c(c1)N(Cc1ccccc1)C(=O)c1ccccc1S2(=O)=O)N1CCCC1	-1.5%	4%	.	.	-5%[46.1 µM]	-25%[46.1 µM]	?	.
O=C(Cc1ccc(Cl)cc1)NC1CC1	.	-6%	.	-21%	3%[46.1 µM]	-1%[46.1 µM]	.	2%
O=C(COC(=O)/C=C/c1ccc(F)cc1)NC1CC1	.	0%	.	3%	-36%	2%	.	3%

The last 4 compounds of the part before come first, to join the parts:
SMILES	Cruzain Triton	StopGo reporter	NS1 inh	RE007 growth inh	Marburg entry inh	LASV entry inh	Cruzain inh noDet	SARS PLP yeast
Cc1c(NC(=O)c2nn(CC(C)C)c(=O)c3ccccc23)c(=O)n(-c2ccccc2)n1C	.	-19%	.	12%	8%	?	.	1%
O=C(c1ccc2c(c1)N(Cc1ccccc1)C(=O)c1ccccc1S2(=O)=O)N1CCCC1	-1.5%	4%	.	.	-5%[46.1 µM]	-25%[46.1 µM]	?	.
O=C(Cc1ccc(Cl)cc1)NC1CC1	.	-6%	.	-21%	3%[46.1 µM]	-1%[46.1 µM]	.	2%
O=C(COC(=O)/C=C/c1ccc(F)cc1)NC1CC1	.	0%	.	3%	-36%	2%	.	3%
Cc1nc(NS(=O)(=O)c2cccc([N+](=O)[O-])c2)sc1C(C)(C)C	.	57%[activator]	22%	-7%	.	.	.	1%
COc1ccc(NC(=O)C2CCN(C(=O)c3cccs3)CC2)cc1OC	3.8%	-9%	11%	2%	3%[46.1 µM]	-1%	0%	8%
CC(=O)c1c(C)[nH]c(C(=O)Nc2ccc(C)c(S(=O)(=O)Nc3ccc(C)cc3C)c2)c1C	.	-9%	8%	9%	.	.	.	-2%
COc1ccc(NC(=O)c2csnn2)cc1	-4.7%	42%[activator]	.	.	?	0%[46.1 µM]	-1%	.
CCOc1cc(CN2CCCC(N3CCN(c4ccc(F)cc4)CC3)C2)ccc1OC (centres undefined)	.	2%	-5%	4%	.	.	.	1%
COCCNC(=O)c1ccc(S(=O)(=O)N2CCCc3ccccc32)cc1	.	-16%	2%	3%	-3%[46.1 µM]	?	.	1%
CCCN1C(=O)C2(c3ccccc31)c1c(oc3ccccc3c1=O)C(=O)N2CCO (centres undefined)	0.8%	0%	.	.	14%[46.1 µM]	18%[46.1 µM]	-3%	.
O=C(c1cc(Cl)cc(Cl)c1)N1CCN(c2cc(C(F)(F)F)nc3ccccc23)CC1	.	-21%	5%	8%	.	.	.	0%
Cc1ccccc1NC(=O)c1cccnc1	.	-10%	10%	9%	.	.	.	5%
COc1ccc(/C=C/C(=O)N(C)C2CCS(=O)(=O)C2)cc1 (centres undefined)	.	-10%	.	-4%	0%[46.1 µM]	27%	.	-5%
S=P(c1ccc(N2CCOCC2)cc1N1CCOCC1)(N1CCOCC1)N1CCOCC1	1.4%	-15%	-31%	7%	5%	4%	9%	7%
CCCn1c(SCC(=O)Nc2ccc(Cl)cn2)nnc1C1CC1	.	14%	7%	0%	-28%[46.1 µM]	5%[46.1 µM]	.	5%
CC1=NN(c2ccccc2)C(=O)/C1=C\c1cn(C)c2ccccc12	.	1%	.	3%	-2%[46.1 µM]	16%	.	-1%
CC(=O)Nc1c2c(nn1-c1ccc(F)cc1)CSC2	.	-8%	-1%	0%	.	.	.	7%
N#Cc1c(SCC(=O)O)nc(N2CCOCC2)c2c1CCCC2	.	-5%	7%	7%	11%[46.1 µM]	0%	.	1%
COc1ccccc1N/N=C1\COC(C)(C)CC1=O	.	40%[activator]	-6%	-9%	28%[46.1 µM]	8%	.	-2%
CC(=O)NC(Cc1ccccc1C)C(=O)NC1CCN(C(=O)c2ccc(C)cc2)CC1 (centres undefined)	.	1%	5%	3%	.	.	.	-1%
O=C(CN1C(=O)COc2ccc(S(=O)(=O)N3CCOCC3)cc21)Nc1cccc(Cl)c1	.	-13%	8%	0%	.	.	.	-3%
COc1ccccc1C(=O)N1CCN(c2cccc(Cl)c2)CC1	1.8%	?	-6%	-1%	?	?	-1%	-11%
O=[N+]([O-])c1cc(-c2nc(-c3ccccc3)no2)ccc1NC1CCCC1	-1.6%	45%[activator]	.	.	?	-6%[46.1 µM]	4%	.
COc1ccc(N2CCN(S(=O)(=O)c3c(C)[nH]c(C)c3C(=O)N3CCCCC3)CC2)cc1	.	40%[activator]	-14%	12%	-12%[46.1 µM]	6%[46.1 µM]	.	10%
Cc1ccc(C(C)(C)NC(=O)C2CCC(=O)N(CC3CCCCC3)C2)cc1 (centres undefined)	.	32%[activator]	-11%	4%	.	.	.	10%
N#Cc1ccc(OCC(=O)NCCc2ccc(S(N)(=O)=O)cc2)cc1	-8.8%	11%	2%	-8%	-2%	-12%	4%	5%
COC(=O)C1(CCSC)NC(c2ccc(O)cc2)C2C(=O)N(c3ccc4c(c3)OCCO4)C(=O)C21 (centres undefined)	1.5%	-2%	-6%	-4%	7%&7%	-1%	0%	-5%
CCOc1ccc(Nc2oc(/C=C/c3ccc(F)cc3)nc2C#N)cc1	-1.0%	-10%	.	.	-16%[46.1 µM]	7%[46.1 µM]	-13%	.
Cc1ccc(-n2nc3c(=O)n(CC(=O)NC(C)C)nc(C)c3c2C)cc1	-1.0%	5%	.	.	.	?	-5%	.
CCC(C)NC(=O)CN1C(=O)NC2(CCOc3ccccc32)C1=O (centres undefined)	.	-1%	13%	3%	0%[46.1 µM]	9%[46.1 µM]	.	0%
CC(C)CN(C(=O)COC(=O)CNC(=O)c1sc2ccccc2c1Cl)C1CCS(=O)(=O)C1 (centres undefined)	.	4%	.	1%	1%	-7%[46.1 µM]	.	4%
Cc1ccc(-n2ncc3c(N4CCN(C)CC4)ncnc32)cc1C	0.4%	-37%	.	.	.	16%[46.1 µM]	3%	.
O=C(c1cc2c(=O)[nH]c3ccccc3c2s1)N1CCN(c2ccc(F)cc2)CC1	-2.1%	-14%	.	.	-14%[46.1 µM]	-17%[46.1 µM]	4%	.
FC(F)(F)Sc1ccc(NC(=S)NCc2ccccc2)cc1	.	-15%	-97%	-13%	.	.	.	-4%
FC(F)Oc1ccc(-c2csc(Cc3nnc4n3CCCCC4)n2)cc1	-6.9%	-47%	-3%	9%	?	-18%	3%	2%

In the list so far, these have a CF3 group.
SMILES	Cruzain Triton	StopGo reporter	NS1 inh	RE007 growth inh	Marburg entry inh	LASV entry inh	Cruzain inh noDet	SARS PLP yeast
O=C(c1cc(Cl)cc(Cl)c1)N1CCN(c2cc(C(F)(F)F)nc3ccccc23)CC1	.	-21%	5%	8%	.	.	.	0%
FC(F)(F)Sc1ccc(NC(=S)NCc2ccccc2)cc1	.	-15%	-97%	-13%	.	.	.	-4%
